# Screens deposited in PubChem by several laboratories.
# Calb FLC: affects C. albicans growth with fluconazole | hit rate 0.57% among 300,000 | C. albicans CaCi-2 (fluconazole-resistant clinical isolate) + fluconazole, Alamar Blue growth, 48 h | growth inhibition, % (no concentration beside the values);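 active = most replicates above 75%; inconclusive = exactly half above 75%; inactive = most below 75%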;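 also: all wells also contain fluconazole at 8 µg/ml as a sub-toxic cotreatment; 0% = median of DMSO wells and 100% = median of geldanamycin control wells; wells of about 8 µL received 7.5 nL stock; the first replicate is given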
# B2AR ag: agonists of human beta-2 adrenergic receptor inducing internalization | P07550 | Am2.2-beta2AR cells, FAP receptor internalization, flow cytometry; reference of the scale not given here | response, % (no concentration beside the values) | hit rate 0.43% among 340,000 | AID 504454;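 active = response above a set limit, near 3 SD of response in nonfluorescent compounds, cut at about 42% in these data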;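 also: stock transfer was 100 nL into about 11 µL; a reference agonist was the positive control; negative values mostly stem from fluorescent compounds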
# Target sequence (P07550 whole entry, looked up): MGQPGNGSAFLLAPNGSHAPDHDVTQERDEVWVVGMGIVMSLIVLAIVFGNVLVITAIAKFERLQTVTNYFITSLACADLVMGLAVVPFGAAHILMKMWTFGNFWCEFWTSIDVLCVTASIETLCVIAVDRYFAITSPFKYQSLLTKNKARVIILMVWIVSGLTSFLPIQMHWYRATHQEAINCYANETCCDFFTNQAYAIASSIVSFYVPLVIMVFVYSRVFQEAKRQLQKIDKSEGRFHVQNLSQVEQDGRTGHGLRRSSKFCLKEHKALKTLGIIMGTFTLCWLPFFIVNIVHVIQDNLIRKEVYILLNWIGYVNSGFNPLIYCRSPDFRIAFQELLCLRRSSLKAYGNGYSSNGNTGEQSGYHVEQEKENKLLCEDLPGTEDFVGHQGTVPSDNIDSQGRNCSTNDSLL
# ALR H2O2 inh: inhibitors of human sulfhydryl oxidase ALR; P55789; purified ALR, DTT oxidation, H2O2 HRP-luminol luminescence; inhibition, % (concentration not given with the values); hit rate 3.8% among 290,000; AID 485317;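 active = mean and each replicate at 75% or more; inconclusive = only one of the two met; inactive = neither met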;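 also: stock transfer was 7.5 nL into about 7.5 µL; 0% = neutral wells and 100% = wells with inactivated enzyme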
# Target sequence (P55789 whole entry, looked up): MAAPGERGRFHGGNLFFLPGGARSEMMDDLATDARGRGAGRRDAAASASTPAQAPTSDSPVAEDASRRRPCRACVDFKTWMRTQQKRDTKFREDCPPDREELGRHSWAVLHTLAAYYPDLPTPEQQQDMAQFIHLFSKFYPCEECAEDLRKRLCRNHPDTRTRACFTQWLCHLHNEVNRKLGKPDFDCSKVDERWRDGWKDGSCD
# LANA-H2A inh: blocks KSHV LANA binding to histone H2A/H2B. Q9QR71. hit rate 0.6% among 320,000. inhibition, % (test concentration not listed). cell-free LANA-H2A/H2B peptide, fluorescence polarization; in the data active = inhibition mostly above about 10%, no sharp cut-off; inactive = mostly below about 6.7%;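 also: stock transfer was 7.5 nL into about 10 µL; 0% = median of vehicle wells and 100% = median of positive control wells; one replicate is shown; the record names a cut of 25% in any replicate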
# Bfl-1 A1 inh: inhibitors of the anti-apoptotic protein A1, read as caspase activation; caspase activation, % (test concentration not listed); MEF A1-2A-BIM cells, Caspase-Glo 3/7 luminescence, 3 h; percent of clofoctol response, vehicle zero; hit rate 0.066% among 330,000;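 active = over half of replicate activation scores above 10%, or exactly half above 10 with the replicate mean above 10; inconclusive = replicate mean below 10 yet half the replicates above 10; inactive = over half of replicates below 10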;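 also: wells of about 30 µL received 50 nL stock; many hits fall short of the cut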
# T cruzi repl: blocks replication of Trypanosoma cruzi. AID 1885. T. cruzi beta-gal in NIH3T3, luminescence, 90 h. hit rate 1.4% among 300,000. inhibition, % (test concentration not listed);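 active = mean inhibition across valid replicates above about 55%, limit read from the data; inconclusive = mean below that limit but half or more replicates reach it; inactive = mean below it, under half of replicates reach it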;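 also: signal also drops with host cell toxicity which is not excluded here; 0% = plate median of DMSO wells and 100% = zero luminescence signal; higher percent means less beta-gal luminescence so fewer parasites; stock transfer was 50 nL into about 50 µL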
# Beta cell apopt: blocks beta cell apoptosis | AID 435005 | hit rate 0.8% among 300,000 | INS-1E cytokine-induced death, ATP luminescence, 48 h; percent of positive-control rescue, neutral wells zero | protection from apoptosis, % (concentration not given with the values);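 active = all replicates at 75% or more, or half of them and the mean; inconclusive = half reach 75% but not the mean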;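 also: 0% = cytokine-treated negative control wells and 100% = positive control rescue; higher means more ATP so stronger rescue from cytokine killing; wells of about 40 µL received 100 nL stock; the first replicate is given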
# rRNA inh HTS: inhibitors of bacterial rRNA selective over humanized ribosomes. E. coli WT GFP vs humanized-ribosome RFP mutants, fluorescence, 24 h; active compounds read low; DMSO median 0, no signal -100. GFP signal change (wild-type ribosome), % (concentration not given with the values). hit rate 1.6% among 350,000;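 active = significant combined selectivity score with lowered wild-type GFP, culture density cut under 30%, mutant RFP and density less affected; inactive = any of these conditions unmet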; also: one replicate is shown; some compounds called inactive have numbers as strong as hits
# rRNA inh HTS OD600: further read-out of rRNA inh HTS, marked with its call; OD600 change, %; measured here: OD600 growth;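 optical density of the mix in the first replicate; 0 = DMSO median and -100 = no signal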
# rRNA inh HTS RFP: also measured in rRNA inh HTS; calls as there; RFP signal change, %; measured here: RFP humanized mutant strains;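 first replicate; 0 = DMSO median and -100 = no signal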
# The depositor's hits bear a star; ? = inconclusive; / = no result given.
canonical_smiles	Calb FLC	B2AR ag	ALR H2O2 inh	LANA-H2A inh	Bfl-1 A1 inh	T cruzi repl	Beta cell apopt	rRNA inh HTS	rRNA inh HTS OD600	rRNA inh HTS RFP
Cc1cc(C)n(C(=O)CN(C)S(=O)(=O)c2ccc([N+](=O)[O-])cc2)n1	-9	-6	-20	1.6	1.1	-6	-5	12	0	-2.6
COc1ccc(C(=O)Nc2ccc3c(c2)nc(CCNC(C)=O)n3C)cc1	34	2	-6	3.0	-0.4	-9	-8	/	/	/
C/C=N\NC(=O)COc1cc(C)ccc1C	-5	0	7	-2.6	-0.4	-10	/	8	10	0.8
OCc1nc2ccccc2n1CC(O)Cn1ccc2ccccc21 (centres undefined)	-4	-3	-5	-0.1	-0.3	5	9	/	/	/
CCOC(=O)N1CCN(C(=O)CCCOc2ccccc2)CC1	1	0	-4	-3.1	-0.4	-4	-4	/	/	/
COc1ccc(C(=O)c2c[nH]c(C(=O)NCCCN3CCOCC3)c2)cc1	7	-11	-9	3.9	0.1	-1	-6	9	8	-7.3
CCCNS(=O)(=O)c1cc(Cl)ccc1OC	-13	3	-12	2.6	0.7	-4	-4	12	10	0.7
COc1ccc(CCN(C)C2CCCN(S(=O)(=O)N(C)C)C2)cc1OC (centres undefined)	-10	0	/	-7.6	0.9	-3	-7	8	13	0.4
C=CCn1c(SCC(=O)N(CCOC)c2c(N)n(CC(C)C)c(=O)[nH]c2=O)nc2ccccc21	3	-3	-4	-1.4	0.9	0	/	5	3	-2.2
CC(C)NC(=O)c1ccccc1NC(=O)/C=C/c1ccc([N+](=O)[O-])cc1	8	4	-3	2.7	-0.3	-1	1	/	/	/
CN1CCN(C(=O)/C(=C/c2cn(S(=O)(=O)N(C)C)c3ccccc23)NC(=O)c2ccccc2Cl)CC1	-2	-2	-1	-2.2	-0.2	-5	/	1	6	-3.3
CCOC(=O)N1CCN(S(=O)(=O)c2ccc(C(=O)Nc3nc4ccc(F)cc4s3)cc2)CC1	-2	3	-1	0.2	0.9	3	39	16	4	-0.7
O=C(NCCc1ccc(Cl)cc1)C1CCN(S(=O)(=O)c2ccc(Br)s2)CC1	55	4	-2	-2.7	0.1	48	10	11	-15	-2.1
CCC(=O)N1CCN=C1SCc1ccc(F)cc1	/	-35	99*	-2.8	0.8	/	-14	-1	1	0.9
CCN(CC)S(=O)(=O)c1ccc(Cl)c(C(=O)OC2CC(C)OC2=O)c1 (centres undefined)	3	-1	3	-2.0	0.3	-10	1	9	9	4.8
CC(NC(=S)Nc1ccccc1Cl)C(c1cccs1)N1CCCC1 (centres undefined)	-15	3	-17	1.7	-0.8	3	-2	10	3	0.6
COc1ccc(NC(=O)c2ccccc2Cl)cc1NC(=O)CN1CCOCC1	-15	4	-19	-6.5	-0.5	-1	-6	/	/	/
COC(=O)CNC(=O)Cn1nc(C)c([N+](=O)[O-])c1C	-6	-3	-9	3.0	0.5	-9	4	3	3	1.3
N#Cc1ccccc1Cn1c(=O)n(Cc2ccc(C(=O)NCc3ccco3)cc2)c(=O)c2sccc21	-2	-1	94*	-1.3	0.1	0	3	2	6	4.8
Cc1ccnc(NC(=O)C2CCN(S(=O)(=O)c3ccc(Cl)c(C(F)(F)F)c3)CC2)c1	-2	0	-1	2.4	0.0	20	-8	-1	0	-0.9
CCOC(=O)c1cc(-c2ccc([N+](=O)[O-])cc2)nc2c1c(=O)[nH]c(=O)n2Cc1ccccc1	-3	-9	-3	1.0	0.6	7	1	10	13	-0.5
Cc1nn(C)cc1S(=O)(=O)N1CCN(Cc2cccc(Cl)c2)CC1	-2	7	0	4.6	-0.6	-8	0	-1	3	-2.8
COc1cc(NC(=O)CCC(=O)c2cccs2)cc(OC)c1	-3	6	-2	-3.2	-0.1	-2	1	-3	-6	0.2
CC(=O)Nc1ccc(NC(=O)CN(c2cccc(C)c2)S(C)(=O)=O)cc1	-4	3	1	-4.1	1.5	-7	-5	/	/	/
O=C(c1ccccc1F)N(Cc1ccccc1)Cc1ccccc1	-16	-3	7	-7.5	0.6	15	-2	-27	-32	-8.5
N/C(=N\OC(=O)COc1ccc2ccccc2c1Br)c1ccncc1	-4	/	-47	2.4	-0.9	56*	1	/	/	/
CC1(C)NC(=O)N(CN2C(=O)NC(C)(C)C2=O)C1=O	-2	-4	-25	-5.7	1.0	7	/	/	/	/
c1ccc(NC2=NCCN2CC2CCCCC2)cc1	/	-3	-11	1.4	-1.0	/	1	1	13	7.6
COc1ccc(S(=O)(=O)N(CC(=O)NCc2ccccn2)Cc2ccccc2)cc1	3	9	1	1.4	-0.3	14	4	-7	-15	-0.2
COc1ccc(CC(=O)Nc2ccc(C(=O)NC(C)(C)C)cc2)cc1	-1	1	/	/	0.3	-9	6	/	/	/
Cc1ccnc(NC(=O)CCC(=O)c2cc(C)sc2C)c1	4	-64	-4	0.0	-0.7	-7	-16	12	17	2.3
CCCC(=O)Nc1nc2ccc(C(=O)OCC)cc2s1	-15	5	-10	-0.4	-1.4	26	-1	4	4	1.5
COc1ccccc1CCC(=O)NC1CCCN(c2ccc(C(F)(F)F)cn2)C1 (centres undefined)	7	5	-18	-2.9	-0.5	-9	4	8	19	0.8
COc1ccc(C=O)cc1COc1c(F)c(F)cc(F)c1F	-7	-12	0	-2.3	0.2	2	-4	/	/	/
O=C(c1ccc(Cn2cc(Cl)cn2)o1)N1CCN(Cc2ccc3c(c2)OCO3)CC1	-7	-7	-2	-3.4	-0.3	12	1	/	/	/
CCCN(C(=O)CSc1n[nH]c(-c2ccc(OC)cc2)n1)c1c(N)n(Cc2ccccc2)c(=O)[nH]c1=O	0	3	86*	17	0.3	-2	-5	0	0	0.3
N#Cc1c(-c2ccccc2)cc(-c2ccccc2)nc1SCC(=O)O	43	12	68	-3.0	0.1	-4	0	-23	-32	-5.1
CC(C)Cc1ccc(CN2CCCC(NC(=O)Cn3cnnn3)C2)cc1 (centres undefined)	-3	8	-10	0.0	-0.3	?	0	7	10	-1.1
O=C(NC1CCS(=O)(=O)C1)c1ccc(Br)s1 (centres undefined)	/	9	-4	5.0	0.2	/	-2	14	9	2.8
O=C(N/N=C/c1ccccc1Cl)c1n[nH]c2c1CCCC2	-26	4	2	-2.0	-8.6	-17	25	18	17	-1.2
Cc1ccc(C)c(S(=O)(=O)Nc2cc3c4c(c2)CCC(=O)N4CCC3)c1	-13	8	2	5.7	-0.3	-6	12	5	-3	-0.1
Cc1ccc(S(=O)(=O)n2nc(OC(=O)c3cccs3)cc2N)cc1	13	8	/	3.0	-0.1	-3	-8	/	/	/
Cc1ccc(C2(c3noc(CN4CCC(c5ccncc5)CC4)n3)CCCC2)cc1	119*	4	-5	-2.9	-0.2	49	14	0	3	3.7
Cc1nc(-c2ccccc2)cc(-c2ccccc2)n1	-2	-6	-2	3.5	0.0	0	/	-4	9	-4.0
O=C(c1cccc(F)c1)N1CCN(C2CCCCC2)CC1	5	1	-2	-0.7	-0.2	-11	3	-1	3	-2.6
CN1C[C@@H]2C[C@@H](c3ccc(C#CC(C)(C)O)s3)N3CCC[C@@]23C1=O	15	0	-5	2.8	0.3	-15	-9	/	/	/
COc1ccc(OCC(O)CNCc2ccco2)cc1 (centres undefined)	2	1	-8	-3.0	-0.7	-4	1	/	/	/
Nc1nnc(CC(=O)Nc2ccccc2)s1	-1	4	-4	-0.3	-0.2	-16	-2	9	12	-1.1

# Structures shown so far that have a CF3 group, in the order listed:
canonical_smiles	Calb FLC	B2AR ag	ALR H2O2 inh	LANA-H2A inh	Bfl-1 A1 inh	T cruzi repl	Beta cell apopt	rRNA inh HTS	rRNA inh HTS OD600	rRNA inh HTS RFP
Cc1ccnc(NC(=O)C2CCN(S(=O)(=O)c3ccc(Cl)c(C(F)(F)F)c3)CC2)c1	-2	0	-1	2.4	0.0	20	-8	-1	0	-0.9
COc1ccccc1CCC(=O)NC1CCCN(c2ccc(C(F)(F)F)cn2)C1 (centres undefined)	7	5	-18	-2.9	-0.5	-9	4	8	19	0.8

# Further structures.
canonical_smiles	Calb FLC	B2AR ag	ALR H2O2 inh	LANA-H2A inh	Bfl-1 A1 inh	T cruzi repl	Beta cell apopt	rRNA inh HTS	rRNA inh HTS OD600	rRNA inh HTS RFP
COC(=O)NCc1cc2cc(Cl)ccc2[nH]1	?	2	-23	0.3	0.3	/	-4	-13	-6	11
O=c1c(-c2ccc(O)cc2)coc2cc(OC3OC(CO)C(O)C(O)C3O)cc(O)c12 (centres undefined)	10	-3	58	1.1	-3.3	-8	-2	8	4	7.3
COc1ccc(-c2cc(-c3ccc(OC)cc3)c(C#N)c(SC)n2)cc1	1	-5	1	0.4	-0.4	14	1	/	/	/
COc1ccc(C(=O)NN/C(=N/S(=O)(=O)c2ccc(C)cc2)c2ccccc2)cc1	-1	-3	5	-7.0	-5.9	0	-5	9	23	15
CCCOC(=O)C1=C(C)NC(=O)NC1c1cccc2ccccc12 (centres undefined)	-7	-1	-9	1.7	-0.5	13	-2	7	22	-0.1
O=C1NCCN(Cc2ccc(Cl)c(F)c2)C1CC(=O)N1CCCO1 (centres undefined)	-4	-5	-21	-3.0	0.1	-5	-3	/	/	/
CCCn1cnc2cc(NC(=O)c3ccco3)ccc21	13	-10	1	-1.4	-1.1	-2	2	0	-1	-0.5
N#CCCCCN1c2cccc3cccc(c23)S1(=O)=O	1	-2	-26	-1.9	1.0	17	-6	/	/	/

# ALR H2O2 inh: hit marks shown above.
SMILES,B2AR ag,ALR H2O2 inh,LANA-H2A inh,rRNA inh HTS,rRNA inh HTS OD600,rRNA inh HTS RFP
CCC(=O)N1CCN=C1SCc1ccc(F)cc1,-35,99*,-2.8,-1,1,0.9
N#Cc1ccccc1Cn1c(=O)n(Cc2ccc(C(=O)NCc3ccco3)cc2)c(=O)c2sccc21,-1,94*,-1.3,2,6,4.8
CCCN(C(=O)CSc1n[nH]c(-c2ccc(OC)cc2)n1)c1c(N)n(Cc2ccccc2)c(=O)[nH]c1=O,3,86*,17,0,0,0.3

# Further structures:
canonical_smiles	Calb FLC	B2AR ag	ALR H2O2 inh	LANA-H2A inh	Bfl-1 A1 inh	T cruzi repl	Beta cell apopt	rRNA inh HTS	rRNA inh HTS OD600	rRNA inh HTS RFP
COc1cccc(NC(=O)[C@@H]2CCCN2C(=O)C2CCN(S(=O)(=O)c3ccc(C)cc3)CC2)c1	5	-3	-5	0.9	-0.2	-19	-3	/	/	/
CCc1ccc(NC(=O)N2CCc3ccccc3C2)cc1	-26	2	-5	-0.8	-2.3	17	-1	-10	-11	-3.2
O=C(O)Cc1ccc(C(=O)c2ccc(F)cc2)s1	-1	-8	-1	-3.3	1.1	0	0	/	/	/
O=C(Nc1ccn(Cc2ccccc2)n1)c1ccc2c(c1)OCO2	-44	8	-3	-5.2	-3.5	-15	0	-8	1	-1.6

# This is a subset; the hit share may differ from the screen's.
